LASV entry inh – Lassa virus entry inhibition. Lassa virus pseudotype entry inhibition, cell reporter; control for the full effect not named in the record. Potency, µM (series often up to 37.9 µM), for inactives: top-dose activity change, negative = inhibition, actives largely listed as inhibitors. actives 1.2% (n = 300,000); active means well fitted inhibition curve with a large enough effect; inconclusive means small, poorly fitted or top-dose-only effect, or effect the other way; inactive means flat fitted curve, though single readings scatter; tested in HEK293 cells; note: % is set by controls: 0 for no effect and ±100 for the full control effect; nearly all actives have a fitted effect of over 50% in size; luciferase read-out
NS1 inh – influenza NS1 inhibition; actives 0.4% (n = 270,000); Potency, µM (titrated, usually from 46.1 µM), for inactives: at the top dose activity, positive = more growth; S. cerevisiae slowed by influenza A NS1, growth recovery by OD600; AID 2326; note: actives are rising curves; nearly all actives have a fitted effect of over 50% in size
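A cell-based growth assay was used: compounds that relieve NS1-induced slow growth of budding yeast raise OD600. Assay medium was yeast nitrogen base with ammonium sulphate and -URA supplement, pH 6.0, with 2% galactose.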
Cruzain Triton – inhibitors of Trypanosoma cruzi cruzain with detergent. purified cruzain, Z-FR-AMC fluorescence, 0.01% Triton. Potency, µM, for inactives: max response, negative = inhibition, most hits filed as inhibitors. actives 0.43% (n = 200,000); active = well fitted curve in the direction sought with a large enough effect; inconclusive = small, poorly fitted or top-dose-only effect, or another doubt; inactive = no such curve, though single readings can be large; an effect the other way counts as inactive or inconclusive;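 note: plate controls were neutral wells for no effect and buffer without enzyme for full effect; nearly all actives have a fitted effect of over 40% in size; top concentration of the series not given in the record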
Target sequence (P25779 123-467 limits assumed): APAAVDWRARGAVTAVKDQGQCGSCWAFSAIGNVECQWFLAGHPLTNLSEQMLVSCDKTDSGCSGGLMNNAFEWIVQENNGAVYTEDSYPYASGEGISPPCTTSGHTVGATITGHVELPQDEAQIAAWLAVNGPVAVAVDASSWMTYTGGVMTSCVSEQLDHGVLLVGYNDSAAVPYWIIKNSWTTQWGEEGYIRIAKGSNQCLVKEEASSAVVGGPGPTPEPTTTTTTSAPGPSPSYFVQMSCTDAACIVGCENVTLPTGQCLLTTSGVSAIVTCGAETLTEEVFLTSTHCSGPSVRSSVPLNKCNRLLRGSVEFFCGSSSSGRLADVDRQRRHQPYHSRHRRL
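Detergent-containing arm of a paired screen for aggregation-based inhibition: 0.01% Triton X-100 present. Cruzain at 1.5 nM cleaved 2 uM Z-FR-AMC at pH 5.5 with 5 mM DTT; AMC fluorescence gain over 60 s measured activity.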
Cruzain noTriton – blocks cruzain activity in detergent-free assay; actives 2.3% (n = 200,000); Potency, µM, inactives show max response, negative = inhibition, hits mostly inhibitors; P25779; purified cruzain, Z-FR-AMC fluorescence, no detergent; active = well fitted curve in the direction sought with a large enough effect; inconclusive = small, poorly fitted or top-dose-only effect, or another doubt; inactive = no such curve, though single readings can be large; an effect the other way counts as inactive or inconclusive;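 note: plate controls were enzyme without inhibitor for no effect and buffer without enzyme for full effect; nearly all actives have a fitted effect of over 40% in size; top concentration of the series not given in the record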
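Purified cruzain at 1.5 nM, pre-incubated 15 min with compound at room temperature in 100 mM sodium acetate pH 5.5, 5 mM DTT, 0.00005% Triton X-100. Reaction started with 2 uM Z-FR-AMC; AMC fluorescence increase over 60 s gives rate.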
MARV entry inh – Marburg virus entry inhibition. Marburg virus pseudotyped entry inhibition, cell reporter; control for the full effect not named in the record; about a third of the inactives were read at about 46 µM. actives 1.8% (n = 300,000). Potency, µM (top dose mostly 37.8 µM), without a hit: at the highest dose activity change, negative = inhibition, hits mostly inhibitors; active = well fitted inhibition curve with a large enough effect; inconclusive = small, poorly fitted or top-dose-only effect, or effect the other way; inactive = flat fitted curve, though single readings scatter; tested in HEK293 cells; about a fifth of its hits are not listed in these tables; note: % is set by controls: 0 for no effect and ±100 for the full control effect; luciferase read-out
StopGo reporter – FMDV 2A StopGo reporter, luciferase signal | human cells with a luciferase reporter of 2A StopGo recoding; control for the full effect not named in the record | Potency, µM (highest dose often 57.9 µM), inactives show at the top dose signal change, negative = less light | actives 1.2% (n = 410,000) | AID 1159524; active = well fitted falling curve with a large enough effect; inconclusive = small, poorly fitted or top-dose-only effect; inactive = no such curve, though single readings can be large or run the other way; tested in HEK293T cells; note: % is set by controls: 0 for no effect and ±100 for the full control effect; nearly all actives have a fitted effect of over 45% in size; luciferase light after 4 h
SARS PLP yeast – inhibitors of SARS-CoV papain-like protease in yeast. actives 0.19% (n = 330,000). Potency, µM (series often up to 32.9 µM), inactives show at the top dose activity, positive = growth rescue. S. cerevisiae expressing SARS-CoV PLpro, growth rescue; control for the full effect not named in the record; note: 0% is about no effect; nearly all actives have a fitted effect of over 55% in size; growth read by luminescence after 48 h
RE007 growth inh – less growth of the S. pombe RE007 Vpr strain; S. pombe RE007 Vpr strain, BacTiter-Glo ATP luminescence, 24 h; control for the full effect not named in the record; Potency, µM (top dose mostly 92.2 µM), without a hit: top-dose activity change, negative = less growth; actives 0.21% (n = 360,000); active = well fitted falling curve with a large enough effect; inconclusive = small, poorly fitted or top-dose-only effect; inactive = no such curve, though single readings can be large or run the other way;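 note: % is set by controls: 0 for no effect and ±100 for the full control effect; nearly all actives have a fitted effect of over 50% in size; the assay follows cell death caused by Vpr and the record does not say whether a fall means rescue or toxicity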
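Fission yeast RE007 carrying one integrated HIV-1 vpr copy, seeded at OD 0.01 in PMG+AL medium with 23 nL pinned compound. Grown 24 h at 30 degrees; viability read by BacTiter-Glo luminescence after 5 min.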
The depositor's hits bear a star; ? = inconclusive; nt = not tested or not shown; & = joins results of further samples; [ ] = dose if it differs, or a comment. Unless noted, calls come from the whole dose curve; as a rule, active means well fitted rising curve with a large enough effect; inconclusive means small, poorly fitted or top-dose-only effect; inactive means no such curve, though single readings can be large or run the other way. Potency is the fitted concentration of half-maximal effect.

Molecule,LASV entry inh,NS1 inh,Cruzain Triton,Cruzain noTriton,MARV entry inh,StopGo reporter,SARS PLP yeast,RE007 growth inh
COc1ccc(C(=O)N2CCc3c([nH]c4ccccc34)C2C(F)(F)F)cc1 (stereo unspecified),nt,-1%,nt,nt,nt,-13%,0%,28%
COc1ccc(C2NC(=O)N(C)C3=C2C(=O)N(c2cccc(Cl)c2)C3)cc1 (stereo unspecified),-27%[46.1 µM],nt,-11%,12%,-9%[46.1 µM],-22%,nt,nt
COC(=O)CN(c1nc(C)cc(OC)n1)S(=O)(=O)c1ccccc1,-1%,-7%[9.22 µM],0.7%,-11%,-3%&-3%,0%,4%,-2%
COc1ccc(N=Cc2c(O)[nH]c3ccccc23)cc1OC,-14%,-37%,-7.1%,-12%,?,34%[activator],-16%,-14%
CCCNC(=O)CSc1c2c(nc3ccc(Cl)cc13)CCCC2,-1%[46.1 µM],nt,-18%,-22%,-9%[46.1 µM],?,nt,nt
Cc1cc(S(=O)(=O)N(Cc2ccccc2)Cc2ccc(N(C)C)cc2)ccc1-n1cnnn1,-12%,?,-1.5%,5%,?,40%[activator],18%,-3%
COc1cc(/C=N\NC(=O)C2CC3C=CC2C3)ccc1O (stereo unspecified),6%,7%,-2.0%,-2%,?,5%,2%,-14%
O=C(O)c1ccc(S(=O)(=O)N2CCC3(CC2)CC(=O)c2ccccc2O3)cc1,8%,nt,nt,nt,?,-3%,-6%,0%
COc1cc(CN(CCc2c(C)[nH]c3ccc(C)cc23)C(=S)NC(C)(C)C)cc(OC)c1OC,?,-7%,-1.1%,?,?,?,3%,-11%
CCCNC(=O)c1ccc(N2CCC3(CC2)CC(c2ccc(Cl)cc2)=NO3)c([N+](=O)[O-])c1,nt,-7%,nt,nt,nt,?,4%,-6%
Cc1cc(/C=C(\C#N)C(=O)OCC(=O)Nc2ccc(OC(F)F)cc2)c(C)n1CC(C)C,-25%,?,-6.2%,-4%,9%,20%,4%,-26%
Cc1ccc(Nc2nnc(-c3ccc(C)c(S(=O)(=O)N4CCOCC4)c3)c3ccccc23)cc1,-4%[46.1 µM],nt,0.2%,14%,nt,-7%,nt,nt
CS(=O)(=O)N(CC(=O)N1CCCC1)Cc1ccccc1,21%,2%,nt,nt,3%,1%,0%,1%
C=CCNC(=S)N/N=C(\C)c1cccnc1,?,-2%,nt,nt,nt,-26%,0%,-8%
c1ccc2c(c1)nnn2-c1ncnc2sccc12,12%,nt,nt,nt,0%,50%[activator],-2%,-18%
O=C(Nn1cnnc1)c1cc(Cl)cc(Cl)c1,-25%[46.1 µM],3%,nt,nt,2%[46.1 µM],-2%,0%,4%
COc1cccc(-c2nnc(SCC(=O)N(C)C3CCCCC3)o2)c1,0%[46.1 µM],nt,-4.1%,1%,-7%[46.1 µM],-20%,nt,nt
CCCCOc1c(Cl)cc(C(=O)N(C)CC(=O)Nc2ccc(N3CCOCC3)cc2)cc1OCC,1%,21%,nt,nt,-6%,-21%,3%,-19%
COc1ccc(N(CC(=O)NC(C)(C)C)C(=O)c2ccco2)cc1,20%,3%,-1.1%,-1%,14%,0%,5%,7%
Cc1nn(CC(O)CN2c3ccccc3Sc3ccccc32)c(C)c1Br (stereo unspecified),?,-81%,-11%,-2%,11µM*,?,-32%,0%
Cc1ccc(OCCn2c(-c3ccc(Cl)cc3)nc3ccccc3c2=O)c(C)c1,19%[46.1 µM],nt,0.6%,-2%,-2%[46.1 µM],-7%,nt,nt
CCOc1cccc(/C=N/NC(=S)Nc2ccccc2[N+](=O)[O-])c1O,nt,9%,nt,nt,nt,1.8µM*,6%,1%
O=C(Nc1ccc(F)cc1F)N1CCN(C(=O)c2ccco2)CC1,14%,0%,nt,nt,28%,-15%,-1%,-12%
CCN(CC(=O)Nc1ccc(NC(C)=O)cc1)C(=O)c1ccc(N2CCCC2)c([N+](=O)[O-])c1,23%,nt,nt,nt,6%,5%,-6%,5%
Cc1ccc(-n2nc(C(=O)NN)c(C)c(C#N)c2=O)cc1Cl,22%[46.1 µM],11%,nt,nt,-19%[46.1 µM],-17%,0%,-6%
Cc1ccc(Cl)c(OC(=O)Cn2cnc3c2c(=O)n(C)c(=O)n3C)c1,-12%,nt,nt,nt,?,3%,-4%,-16%
NS(=O)(=O)c1ccc(NC(=O)CSc2nc3ccccc3[nH]2)cc1,nt,nt,nt,nt,18%[46.1 µM],-2%,-1%,3%
O=C(NCCc1ccco1)C(=O)NCC1OCCCN1S(=O)(=O)c1ccc(Cl)cc1 (stereo unspecified),-8%,-8%,nt,nt,0%,-5%,-6%,-11%
CC(C)NC(=O)N1CCOCCOCCN(C(=O)NC(C)C)CCOCCOCC1,-2%,5%,3.9%,-1%,-16%&8%,2%,1%,-6%
Cc1ccc(CN2C(=O)N(c3ccccc3)C(=O)C2CC(=O)Nc2ccccc2)cc1 (stereo unspecified),-17%[46.1 µM],nt,-3.7%,-1%,-17%[46.1 µM],10%,nt,nt

Continuation.
Molecule,LASV entry inh,NS1 inh,Cruzain Triton,Cruzain noTriton,MARV entry inh,StopGo reporter,SARS PLP yeast,RE007 growth inh
COc1cc(N)ccc1-c1cc2ccccc2oc1=O,nt,25%,nt,nt,nt,55%[activator],3%,-4%
Cc1ccc2c(c1)c1c(c(=O)n(-c3ccccc3C)c(=O)n1CC(=O)NCCC1=CCCCC1)n2C,-2%[46.1 µM],nt,-2.0%,-2%,nt,?,nt,nt
CCN(CC)c1ccc(-c2nc(-c3ccncc3)no2)cc1[N+](=O)[O-],28%[46.1 µM],nt,-4.5%,16%,6%[46.1 µM],14%,nt,nt
Cc1ccc(C(=O)Nc2c3c(nn2C(C)(C)C)CS(=O)(=O)C3)cc1[N+](=O)[O-],nt,13%,nt,nt,nt,1%,11%,0%
CCOC(=O)/C=C/C(=O)OCC(=O)NCc1ccccc1,11%,-41%,-7.6%,-15%,-10%,-14%,-21%,-18%
O=C(Oc1ccccc1C(=S)N1CCCCC1)c1cc([N+](=O)[O-])cc([N+](=O)[O-])c1,-7%,4%,-15%,?,0%,-11%,-37%,?
COC(=O)c1ccccc1NC(=S)NC(=O)C1CCCCC1,-10%,-14%,-4.7%,-9%,9%,0%,-23%,-15%
COc1ccc(-n2c3c(cc(C(=O)N4CCCCC4)c2=O)C(=O)CC(C)(C)C3)cc1,?,8%,1.7%,-5%,10%,12%,4%,7%
O=C1CCC(C(=O)N2CCCC2)CN1CCc1cccc(F)c1 (stereo unspecified),nt,-4%,nt,nt,nt,-16%,5%,-22%
O=C(OCC(=O)N1CCCC1)c1ccc(S(=O)(=O)Nc2ccccc2)cc1,-21%[46.1 µM],-2%,nt,nt,-14%[46.1 µM],-4%,3%,-5%
CC(=O)c1cccc(NC(=O)CSc2ccc(-c3ccco3)nn2)c1,-3%,17%,nt,nt,-27%,?,-7%,-11%
CCOC(=O)Nc1ccccc1C(=O)N1CCOCC1,14%,3%,5.8%,0%,3%,-5%,13%,17%
CC(Oc1ccc(Cl)cc1Cl)C(=O)Nc1ccc(OCC(=O)O)cc1 (stereo unspecified),13%[46.1 µM],8%,nt,nt,22%[46.1 µM],-9%,-1%,4%
Cc1ccc(S(=O)(=O)CCc2nc3ccccc3[nH]2)cc1,?,0%,nt,nt,3%&3%[46.1 µM],5%,0%,6%
Cc1noc(C)c1COc1ccc(C(=O)N2CCN(c3cccc(Cl)c3)CC2)cc1,6%,nt,nt,nt,?,?,-3%,13%
S=C(Nc1ccccc1)Nn1cnnc1,-2%,-23%,-8.3%,-11%,1%,-4%,-14%,nt
COc1ccc2oc(C(=O)N(C)CCOc3ccc(Cl)cc3)c(C)c2c1,8%[46.1 µM],-15%,nt,nt,20%[46.1 µM],-23%,-14%,11%
CC1CCN(c2ccc(NC(=O)Cc3ccccc3)cc2)CC1,20%[46.1 µM],-4%,nt,nt,0%[46.1 µM],13%,0%,-13%
CCOCCCN(Cc1ccco1)C(=O)c1cc2c(=O)[nH]c3ccc(C)cc3c2s1,nt,18%,-1.1%&-12%,?,?,-15%&-15%,5%,-12%
Cc1c(C(=O)n2cnc3ccccc32)cccc1[N+](=O)[O-],nt,-2%,nt,nt,nt,10%,8%,4%
c1ccc(-c2csc(N3CCc4ccccc4C3)n2)cc1,18%,?,-0.9%,25µM*,4%,51%[activator],-19%,-4%
COc1ccc(S(=O)(=O)c2cc(NS(=O)(=O)c3ccc(Cl)cc3)c(C)c(C)c2O)cc1,-7%[46.1 µM],nt,-5.8%,18%,-23%[46.1 µM],8%,nt,nt
Cc1cc(C)cc(N(CC(=O)N2CCC(C)CC2)S(C)(=O)=O)c1,29%,-4%,-9.1%,4%,0%,-2%,-1%,10%
CC(=O)[C@@]1(O)CC[C@H]2[C@@H]3CC=C4C[C@@H](O)CC[C@]4(C)[C@H]3CC[C@@]21C,-13%,-1%,-0.8%,?,5%,-18%,-3%,-1%[18.4 µM]
Cc1nn(-c2ccccc2)c(Cl)c1C(=O)OCC(=O)NCCc1ccc(S(N)(=O)=O)cc1,-3%,nt,nt,nt,-5%,-13%,-1%,7%
O=C(c1cn[nH]c1)N1CCc2c([nH]c3ccccc23)C1c1c(F)cccc1Cl (stereo unspecified),?,5%,nt,nt,?,-7%,0%,-11%
CCOC(=O)c1[nH]c(CN2CCN(c3ccc(OC)cc3)CC2)c(C(=O)OCC)c1C,-29%[46.1 µM],-2%,nt,nt,?,-21%,-3%,-22%
CCOC(=O)C1C(=O)Oc2ccc3ccccc3c2C1C1CCOC1=O (stereo unspecified),nt,6%,4.0%,-13%,nt,0%,4%,3%
Cc1ccc(S(=O)(=O)N(C)Cc2ccc(C(=O)N/N=C/c3ccc(OC(F)F)cc3)cc2)cc1,?,6%,-1.1%,10µM*,?,-12%,12%,3%
O=C(NNC(=O)c1ccc(Br)cc1)c1ccncc1,nt,?,nt,nt,nt,10%,4%,-11%
COC(=O)c1cc2sccc2n1Cc1nc(-c2cccc(Cl)c2)oc1C,nt,-5%,-0.9%&-2.6%,-7%&-13%,1%[46.1 µM],?,-3%,-5%

Compound activity as filed in PubChem.
